D2 ag: human D2 receptor agonism in beta-arrestin assay | P14416 | DiscoveRx PathHunter D2 beta-arrestin, luminescence, 90 min; 100% = 57 uM dopamine signal | activation, % (concentration not given with the values) | 360,000 tested, 0.084% active | AID 624465; in the data active = activation above about 40%; inconclusive = about 15% to 40%; inactive = below about 15%; note: compound concentration not given in the record; the text of the record calls up to 30% inactive
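DiscoveRx PathHunter D2 beta-arrestin cells (2,100/well) attached overnight, then compound-stimulated 90 min at 37 C in HBSS/10 mM HEPES/0.1% Tween-20 buffer; beta-galactosidase complementation read by luminescence after 1 h at ambient temperature. Dopamine 57 uM final (EC100) as control.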
TRPV1 potentiator: human TRPV1 potentiation; AID 540277; potentiation, % at 8.33 µM; Q8NER1; TRPV1-expressing cells, Fluo-8 calcium influx, capsaicin EC20 potentiation; host cell line not named in the record; control for the full effect not named in the record; 320,000 tested, 0.02% active; active means potentiation above 80%; inconclusive means 30% to 80%; inactive means below 30%; note: 0% is about no effect
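Cells expressing TRPV1 were dye-loaded with Fluo-8 and read kinetically: 10 s baseline, 3 min after compound (agonist portion), then 2 min after EC20 capsaicin (allosteric enhancer portion). Calcium-bound dye fluorescence at 480/520 nm.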
D2 potentiator: potentiates the human D2 dopamine receptor allosterically. AID 624464. DiscoveRx D2 beta-arrestin cells, luminescence, 90 min; 100% = 57 uM dopamine signal. potentiation, % (concentration not given with the values). 360,000 tested, 0.23% active; active = potentiation of 50% or more; inconclusive = 30% to 50%; inactive = 30% or less;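 note: compound concentration not given in the record; tested on top of an EC20 dose of dopamine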
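PathHunter D2 cells, attached overnight at 37 deg C, received compound in DMSO plus dopamine at EC20 (50 nM final) for 90 min at 37 deg C. Beta-arrestin recruitment was read as luminescence after 1 h with detection reagent at ambient temperature.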
PINK1 modulator: changes PINK1 expression | PINK1 immunofluorescence, high-content cytometry, 24 h | Potency, µM (titrated, usually from 76.6 µM), inactives show top-dose activation (PINK1 increase), usual class: activators | 410,000 tested, 0.2% active; active = well fitted activation curve with a large enough effect; inconclusive = small, poorly fitted or top-dose-only effect; inactive = flat fitted curve, though single readings scatter; cell line not stated here;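 note: potency is the fitted concentration of half-maximal effect; % of control where 0% means no effect; nearly all actives have a fitted effect of over 65% in size; a mitochondrial uncoupler was the plate control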
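Cells are seeded, rested 12 hours, then given compound at five concentrations or DMSO for 24 hours. After fixation, blocking and antibody staining, PINK1 amount and mitochondrial localization are scored; CCCP serves as control.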
Sfp PPTase inh: blocks B. subtilis Sfp PPTase activity; AID 1490; Potency, µM, inactives show max response, negative = inhibition, most hits filed as inhibitors; Biochemical Sfp PPTase activity, qHTS; 310,000 tested, 3.5% active; active = well fitted inhibition curve with a large enough effect; inconclusive = small, poorly fitted or top-dose-only effect, or another doubt; inactive = no such curve, though single readings can be large or run the other way;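 note: the enzyme is Sfp with the accession as filed and its product quenches rhodamine fluorescence; potency is the fitted concentration of half-maximal effect; 0% = enzyme reaction without inhibitor and -100% = no enzyme wells; top concentration of the series not given in the record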
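Reaction rates are the 30-min fluorescence difference (ex 525, em 598 nm) in wells containing 15 nM Sfp, 5 uM rhodamine-CoA and 12.5 uM BHQ-2-YbbR at pH 7.6 with 10 mM MgCl2.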
Six1-Eya2 blk: Six1/Eya2 interaction inhibition; activity change, % (no concentration beside the values); AID 651725; AlphaScreen GST-Six1/His-Eya2 binding, biochemical; stronger effect = lower value; control for the full effect not named in the record; 360,000 tested, 0.56% active; Q15475+O00167; in the data active = activity change below about -65%; inconclusive = about -30% to -65%; inactive = above about -30%; note: % is set by controls: 0 for no effect and ±100 for the full control effect; compound concentration not given in the record
Target sequence (O00167 whole entry, looked up): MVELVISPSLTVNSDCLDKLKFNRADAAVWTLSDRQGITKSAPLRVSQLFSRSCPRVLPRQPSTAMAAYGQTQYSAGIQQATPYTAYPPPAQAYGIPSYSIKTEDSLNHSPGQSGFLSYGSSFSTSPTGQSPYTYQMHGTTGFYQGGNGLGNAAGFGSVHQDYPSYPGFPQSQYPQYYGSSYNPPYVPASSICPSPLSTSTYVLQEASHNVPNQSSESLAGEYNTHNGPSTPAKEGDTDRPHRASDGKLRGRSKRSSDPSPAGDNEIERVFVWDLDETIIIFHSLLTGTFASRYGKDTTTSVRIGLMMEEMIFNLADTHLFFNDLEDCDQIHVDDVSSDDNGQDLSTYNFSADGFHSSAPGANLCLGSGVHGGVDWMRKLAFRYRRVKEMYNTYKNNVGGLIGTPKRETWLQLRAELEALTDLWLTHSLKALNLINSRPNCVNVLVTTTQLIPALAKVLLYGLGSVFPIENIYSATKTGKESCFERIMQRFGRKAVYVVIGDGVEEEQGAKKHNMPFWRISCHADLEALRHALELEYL
Target sequence (Q15475 whole entry, looked up): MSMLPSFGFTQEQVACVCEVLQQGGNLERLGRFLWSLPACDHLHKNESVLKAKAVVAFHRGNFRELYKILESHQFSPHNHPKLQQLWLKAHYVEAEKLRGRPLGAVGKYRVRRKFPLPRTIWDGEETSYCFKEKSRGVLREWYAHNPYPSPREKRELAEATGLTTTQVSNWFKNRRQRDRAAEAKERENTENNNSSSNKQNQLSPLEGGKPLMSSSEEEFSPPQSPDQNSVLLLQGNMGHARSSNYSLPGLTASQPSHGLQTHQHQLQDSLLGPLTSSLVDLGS
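AlphaScreen luminescence read after one hour at 37 °C in darkness. Pin-transferred compounds met GST-Six1 and His-Eya2 protein (5X stock 250 nM/500 nM) plus glutathione donor and Ni-chelate acceptor beads (5X, 50 ug/mL).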
CtBP-E1A inh: blocks the CtBP interaction with E1A | 340,000 tested, 0.49% active | AlphaScreen GST-E1A/His-CtBP binding, 1536-well; stronger effect = lower value; control for the full effect not named in the record | activity change, % (test concentration not listed) | AID 651724; in the data active means activity change below about -65%; inconclusive means about -30% to -65%; inactive means above about -30%; note: % is set by controls: 0 for no effect and ±100 for the full control effect; compound concentration not given in the record
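AlphaScreen with 125 nM GST-E1A and 125 nM His-CtBP (5X stocks) in Tris pH 8.0, 300 mM NaCl, BSA, Tween 20, TCEP. Compounds preincubated 2 h at 37 deg C, then glutathione donor/nickel acceptor beads added for 1 h at 37 deg C in dark.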
Active calls of the source: *; ? = inconclusive; nt = not tested or not shown; [ ] = remark or other dose.

compound	D2 ag	TRPV1 potentiator	D2 potentiator	PINK1 modulator	Sfp PPTase inh	Six1-Eya2 blk	CtBP-E1A inh
CC(=O)c1ccc(Sc2ccc(C(C)=O)cc2)cc1	0.3	6	-7	0.3%	12%	21	1
Cc1nn(CC(=O)N2CCOCC2)c(C)c1[N+](=O)[O-]	9.5	16	-26	3.8%	16%	-3	-1
CC(=O)c1nnn(-c2ccc(F)cc2F)c1C	-0.7	-7	-1	-0.1%	14%	-1	9
Cc1csc(=O)n1CCC(=O)OCC(=O)NNC(=O)c1ccc(Br)cc1	-3.1	2	-3	0.2%	nt	8	-14
Cc1c(NC(=O)CSc2nnc(-c3ccco3)n2-c2ccccc2)c(=O)n(-c2ccccc2)n1C	-1.6	12	2	-0.2%	16%	0	1
CCc1ccc(Cn2nnc(C(=O)Nc3ccc(OC)cc3OC)c2N)cc1	-4.8	2	-1	12%	10%	-2	4
O=C(NCC(=O)N(c1ccccc1)C(C(=O)NCC1CCCO1)c1ccccc1)c1cccs1 (stereo not given)	-0.9	13	3	-0.6%	4%	9	-2
CC(=O)NC(C)C12CC3CC(CC(C(=O)O)(C3)C1)C2 (stereo not given)	0.3	-11	1	2.7%[38.3 µM]	0%	9	3
CCN1CCCC1CN(Cc1cc2ccc(C)cc2[nH]c1=O)C(=S)Nc1ccc(OC)cc1OC (stereo not given)	-3.8	14	-14	-0.2%	-16%	-19	0
C/C(=N\OCC(=O)OCC(=O)NC(=O)c1ccccc1)c1ccc2c(c1)OCO2	0.1	10	-3	3.7%	nt	-2	12
Clc1ccc(Cn2cc(/C=N/n3cnnc3)c3ccccc32)c(Cl)c1	2.8	1	8	3.3%	-8%	-21	3
COc1cc(C(=O)OCCc2c(C)nc3nc[nH]n3c2=O)cc(OC)c1OC	-3.2	9	-5	-0.7%	12%	11	11
Cc1ccc(NC(=O)CCN2CCN(CCO)CC2)cc1	2.4	nt	-2	-0.8%	nt	-2	4
Cc1ccc(NC2CCCN(C(=O)CCCN3CCCCC3=O)C2)cc1C (stereo not given)	-1.1	-22	6	-1.7%	-6%	-1	4
Cc1c(CCO)c(=O)n(-c2ccccc2)n1S(=O)(=O)c1ccc([N+](=O)[O-])cc1	5.8	9	3	1.7%	-13%	-4	0
COc1cc(C(=O)OCC(=O)Nc2ccc(C)cc2)cc(OC)c1OC	1.7	-3	2	1.0%	17%	12	3
CC(=O)N1c2ccc(S(=O)(=O)N3CCC(C(=O)NCc4ccc(F)cc4)CC3)cc2CC1C (stereo not given)	2.5	-3	-3	-0.5%	15%	-1	5
COc1ccccc1N1CCN(c2nc3ccccc3nc2C(C#N)C(=O)OC(C)C)CC1 (stereo not given)	-6.4	-6	-17	1.7%	-3%	?	-29
CCCNC(=O)c1onc(CSc2ccc(F)c(F)c2)c1C(=O)NCCC	1.6	nt	-42	2.4%	nt	10	-2
CC(C)(C)OC(=O)N1CCC(NC(=O)c2[nH]cnc2C(=O)Nc2ccccc2F)CC1	-7.1	nt	7	3.6%	nt	4	7
CCc1nn(-c2cc(Oc3ccccc3)nc(-c3ccccc3)n2)c(N)c1C#N	0.1	12	8	4.4%	31%[activator]	4	0
O=C(CN(Cc1ccccc1C(F)(F)F)C(=O)CNC(=O)c1ccco1)NC1CCCC1	-3.8	2	-26	-0.2%	9%	2	4
Cc1nn(Cc2ccccc2)c(C)c1NC(=O)CSc1nc(-c2ccccc2)nc2c1cnn2-c1ccccc1	1.3	3	0	0.1%	-4%	3	8
CCN1C(=O)[C@H]2[C@H]3CN=C(SCc4ccc(C#N)cc4)N3[C@@](CC)(C(=O)OC)[C@H]2C1=O	-1.5	nt	-3	-1.8%	nt	3	7
COc1ccc(COC(=O)C2=C(C)NC(=O)NC2c2ccccc2OC(C)C)cc1 (stereo not given)	-1.2	-26	-4	1.0%	13%	5	2
COc1cccc(NC(=O)CN(C)C(=O)CCN2C(=O)C3CC=CCC3C2=O)c1 (stereo not given)	-0.4	5	-5	1.6%	nt	4	-4
Cc1nc(Cc2ccccc2)sc1CC#N	-1.5	nt	-2	-1.5%	nt	11	4
Cc1ccc(C)c(N(C)C(=O)COc2cc(=O)n(C)c3ccccc23)c1	0.9	-12	-1	-0.7%	-2%	-5	3
Brc1ccc(-c2n(-c3ccccn3)c3ccccc3[n+]2-c2ccccn2)cc1	-2.2	-3	-16	-0.5%	-16%	-8	nt
COc1cccc(-c2cccc(NC(=O)C3CCN(Cc4cnn(C)c4)CC3)c2)c1	-6.0	-14	-29	0.4%	12%	-1	1
COc1ccc(/C=C/c2nc(-c3ccccc3O)n[nH]2)cc1	-0.9	3	-1	29%	-3%	0	2
COc1ccc(CN2C(=O)C(C)=C(C)C2OC)cc1 (stereo not given)	-5.8	8	-3	0.2%	5%	-1	-3
Cc1ccc2nc3sc(C(=O)N4CCOCC4)c(N)c3cc2c1	-3.1	-13	17	6.1%	-11%	7	8
O=C(Nc1nncs1)c1ccccc1Br	-2.0	-2	-25	-0.1%	11%	-3	-2
CC(Cl)C(=O)NC(=O)NC12CC3CC(CC(C3)C1)C2 (stereo not given)	3.5	-17	-7	4.2%	12%	8	1
O=C(NC1CCCC1)c1ccc2c(c1)S(=O)(=O)c1ccccc1C2=O	5.8	nt	8	0.9%	nt	0	-4
CCOC(=O)c1c(C)nc2cc(C)ccn12	-1.2	0	1	6.3%[38.3 µM]	10%	0	7
O=C(CCC(=O)c1ccccc1)Nc1ccccc1OC(F)F	2.9	0	-4	0.5%	18%	6	5
CN1OC[C@@H]2CN(C(=O)c3cccc4ccccc34)[C@H](c3ccccc3Br)C[C@@H]21	-4.4	nt	-6	-0.7%	nt	2	3
CCC(C)Sc1nnc(CNS(=O)(=O)c2ccc(F)cc2)n1C (stereo not given)	-6.3	13	-6	-0.8%	12%	0	5
O=C(C=Cc1ccc2c(c1)OCO2)C1CC1	-4.3	nt	-1	1.8%	nt	-11	4
COCCCNC(=O)c1ccc(-c2nc3ccccc3nc2-c2ccccc2)cc1	0.4	nt	-1	-0.5%	nt	-3	-4
O=C1CC(N2CCN(c3ccc(C(=O)c4ccc(F)cc4)cc3)CC2)C(=O)N1 (stereo not given)	-0.4	0	-2	-2.9%	12%	-2	-1
COc1ccc(C2NC(=O)c3sc(=S)n(-c4ccccc4)c3N2)cc1 (stereo not given)	-1.8	-3	-13	-0.6%	50µM*	-9	-15
O=C(NNC(=O)C1CCN(Cc2ccc(Cl)c(Cl)c2)CC1)c1cccs1	-7.5	-3	-14	4.2%	-12%	-4	-3
COc1ccc2[nH]c(=O)c(CN(Cc3cccs3)Cc3nnnn3Cc3ccccc3)cc2c1	-1.5	25	-6	nt	7%	-14	-3
O=C(COC(=O)c1c2c(nc3ccccc13)/C(=C/c1ccco1)CC2)NC1CCCC1	1.1	-6	-6	2.6%	50µM*	-8	-4
COc1ccccc1/C=C/C(=O)Nc1ccc(N2CCOCC2)cc1	-4.0	-8	-1	6.8%	-6%	6	-12
CCn1ncc([N+](=O)[O-])c1C(=O)n1nc(C)cc1C	-6.6	10	-3	1.1%	11%	3	-21
COc1ccccc1C(=O)NCCC(=O)N1CCCCC1	2.2	?	-12	-0.3%	4%	2	9
Cc1onc(-c2ccccc2Cl)c1C(=O)Nc1cccc(S(=O)(=O)NC2=NCCC2)c1	0.6	11	-11	-2.2%	nt	1	-8
CC(C)c1nnc(NC(=O)c2cccc(NC(=O)C(F)(F)F)c2)s1	-0.5	8	-2	-1.2%	?	3	0
OC[C@@H]1CN(Cc2ccc(Cl)cc2)C[C@H](n2cnc3c(NCc4ccc(F)cc4)ncnc32)O1	12	nt	21	?	nt	-8	-8
COc1ccc(C2C3=C(N=C4SCC(=O)N42)c2ccccc2CC3)cc1 (stereo not given)	-0.2	7	8	3.4%	-26%	0	-6
CCOC(=O)N1CCN(C(=S)NC)CC1	-0.6	-1	-10	2.2%	3%	12	0
CCCCN(C(=O)C1CC(=O)N(CCc2ccc(OC)c(OC)c2)C1)c1c(N)n(CC(C)C)c(=O)[nH]c1=O (stereo not given)	-0.7	nt	-2	0.3%	nt	6	-5
O=C(Nc1ccc(-c2nc3cccnc3s2)cc1)c1ccc(Cl)nc1	-1.0	-5	0	6.2%	15%	-3	6
Cc1nn(C(=O)c2ccco2)c(C)c1Sc1ccc(Cl)cc1	-3.6	2	-21	8.0%	14%	-5	-5
CC1(C)CC2CC(C)(CN2C(=O)COC(=O)c2cccc([N+](=O)[O-])c2)C1 (stereo not given)	-2.0	nt	-15	-5.5%	nt	-8	3
CC(=O)N1CCN(Cc2ccc(Br)s2)CC1	-0.6	-32	-1	0.1%[38.3 µM]	-14%	5	10

The listing continues.
compound	D2 ag	TRPV1 potentiator	D2 potentiator	PINK1 modulator	Sfp PPTase inh	Six1-Eya2 blk	CtBP-E1A inh
COCCN1CCN(Cc2cn[nH]c2-c2cc3ccccc3o2)CC1	-7.3	12	-9	-0.8%	11%	2	nt
O=C(CCC(=O)c1cccs1)OCC(=O)N1CCN(S(=O)(=O)c2ccccc2)CC1	-3.2	11	-18	-1.6%	-3%	5	3
O=C(COc1ccccc1Cl)NCCCNC(=O)c1ccccn1	-2.6	2	-7	-0.4%	19%	8	2
CCc1ccc2[nH]c(=O)c(CN(Cc3ccccc3)C(=O)Nc3ccccc3OC)cc2c1	-2.9	8	-21	2.3%[38.3 µM]	23%	-16	-11
CCCn1c(NC(=O)CCNC(=O)c2ccccc2Cl)nc2ccccc21	0.7	0	-3	15%	nt	-3	-2
N#CCCn1cnc2ccccc21	-0.2	6	-3	0.5%	10%	-9	-3
Cc1ccnc(NS(=O)(=O)c2ccc(NC(=O)CCS(=O)(=O)c3ccccc3)cc2)n1	3.2	-5	-5	0.7%	19%	-8	nt
Nc1ncnc(Nc2ccc(F)cc2)n1	-0.6	0	18	1.3%	-5%	0	-1

High-throughput results (PubChem BioAssay)
